# TRPML1 blocker: inhibitors of human TRPML1 channel | TRPML1-inducible cells, Ca2+ dye fluorescence, FDSS; stronger effect = lower value; inhibition of EC80 agonist-evoked calcium signal | activity change, negative = inhibition, % (test concentration not listed) | actives 0.02% (n = 390,000) | AID 624415; in the data active means activity change below about -50%; inconclusive means about -30% to -50%; inactive means above about -30%;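 further: stimulus is agonist 54-4 at its EC80 concentration; on the % scale 0 is the no-effect control and ±100 the full control effect; compound concentration not given in the record; the text of the record puts the active cut at -80%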
# Target sequence (Q9GZU1 whole entry, looked up): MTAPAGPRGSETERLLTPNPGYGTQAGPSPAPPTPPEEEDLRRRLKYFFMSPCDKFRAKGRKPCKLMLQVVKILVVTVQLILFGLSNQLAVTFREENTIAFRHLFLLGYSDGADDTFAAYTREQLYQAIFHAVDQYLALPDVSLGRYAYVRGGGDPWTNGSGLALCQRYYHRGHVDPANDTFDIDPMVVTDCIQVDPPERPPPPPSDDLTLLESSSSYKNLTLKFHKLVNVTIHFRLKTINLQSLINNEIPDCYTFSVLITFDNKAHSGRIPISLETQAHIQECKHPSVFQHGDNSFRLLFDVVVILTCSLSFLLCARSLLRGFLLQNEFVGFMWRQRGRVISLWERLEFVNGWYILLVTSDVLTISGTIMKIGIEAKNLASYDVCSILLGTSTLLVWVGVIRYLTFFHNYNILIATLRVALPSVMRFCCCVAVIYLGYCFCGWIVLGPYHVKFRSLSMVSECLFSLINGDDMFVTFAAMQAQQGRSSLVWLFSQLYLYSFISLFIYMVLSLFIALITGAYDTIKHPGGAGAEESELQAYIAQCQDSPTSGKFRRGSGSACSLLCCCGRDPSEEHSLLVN
#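 Calcium fluorescence in TRPML1-DL cells induced overnight with Tet: a 110 s read after compound pin addition, then a 110 s antagonist read after challenge with 54-4 at 4 uM final (EC80).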
# TRPML1 ag: agonists of human TRPML1 channel | activation, % (test concentration not listed) | Q9GZU1 | actives 0.12% (n = 410,000) | TRPML1-expressing cells, Ca2+ dye fluorescence, FDSS; host cell line not named in the record; reference of the full effect not given here | AID 624414; in the data active = activation above about 50%; inconclusive = about 30% to 50%; inactive = below about 30%; further: 0% is about no effect; the text of the record puts the active cut at 80%
#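 Tet-induced TRPML1-DL cells, 1,500 per well, cultured overnight, were loaded with a no-wash Ca2+ dye for 45–90 min. Calcium fluorescence was recorded on the FDSS for 110 s after compound addition, before the EC80 agonist (4 uM 54-4) was added.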
# ClpP mod: qHTS Assay for Activators of ClpP | Potency, µM (titrated, usually from 57.5 µM), for the others: top-dose activity change, negative = active | ATP-dependent Clp protease proteolytic subunit (Bacillus subtilis (strain 168)), P80244 | actives 1.9% (n = 340,000) | AID 651965, 2013 | purified B. subtilis ClpP, FRET peptide cleavage, 20 min; active = well fitted falling curve with a large enough effect; inconclusive = small, poorly fitted or top-dose-only effect; inactive = no such curve, though single readings can be large or run the other way; further: potency means the concentration at half of the fitted maximal effect; the source files actives as falling curves though it sought activators and does not explain the sign; nearly all actives have a fitted effect of over 65% in size; many hits overshoot -100%
# Target sequence (P80244 whole entry, looked up): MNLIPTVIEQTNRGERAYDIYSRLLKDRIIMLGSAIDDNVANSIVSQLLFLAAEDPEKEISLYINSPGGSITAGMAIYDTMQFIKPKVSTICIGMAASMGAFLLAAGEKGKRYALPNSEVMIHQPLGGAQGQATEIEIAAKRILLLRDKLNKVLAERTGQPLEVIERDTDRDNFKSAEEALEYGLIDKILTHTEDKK
#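 ClpP 10 microg/mL final, pH 8 Tris/KCl buffer with BSA, glycerol, Tween-20; compound pinned in; FRET-FV substrate; RT 20 min; Ex320/Em430; ΔFRET vs ADEP 5.8 microM, DMSO, no enzyme.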
# Menin MLL FP FL: displaces fluorescein MLL peptide from human menin; Fluorescence polarization, fluorescein-MLL peptide displacement from menin; FP activity change, % at 61.4 µM; 290,000 tested, under 10 active; AID 1766; inconclusive = falling polarisation curve, or a change in total fluorescence; inactive = total fluorescence flat and polarisation flat or rising; no compound was filed as active; the % refers to the polarisation; negative = inhibition;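 further: % of control where 0% means no effect; inhibitors lower the polarisation; unlabelled MLL peptide was the positive control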
# gsp agonist: gsp mutant agonism; gsp mutant cells, cAMP HTRF, 30 min; control for the full effect not named in the record; Potency, µM (series often up to 76.9 µM), for inactives: at the top dose activation (cAMP increase), usual class: activators; actives 0.13% (n = 340,000); active = well fitted activation curve with a large enough effect; inconclusive = small, poorly fitted or top-dose-only effect, or another doubt; inactive = no such curve, though single readings can be large or run the other way; cell line not stated here;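 further: phosphodiesterase inhibitor Ro 20-1724 added with compounds to block cAMP breakdown; potency means the concentration at half of the fitted maximal effect; nearly all actives have a fitted effect of over 60% in size; about a fifth of the inactives were tested at one dose only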
#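 Cells stably selected in G418 were plated at 2000/well, grown 16-24 hr, then given compounds in DMSO with the PDE inhibitor […] (300 uM solution added) for 30 min at 37C; cAMP was read by HTRF.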
# gsp antag: antagonizes gsp, the McCune-Albright syndrome mutation; gsp-mutant cells, cAMP HTRF, 30 min; control for the full effect not named in the record; Potency, µM (series often up to 76.9 µM), for inactives: at the top dose activity change, negative = inhibition, actives largely listed as inhibitors; actives 0.4% (n = 340,000); AID 624288; active = falling curve of any shape with a large fitted effect; inconclusive = falling curve, mostly with a smaller effect; inactive = flat or rising curve; cell line not stated here;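 further: intracellular cAMP measured with PDE inhibitor Ro 20-1724 present during compound exposure; potency means the concentration at half of the fitted maximal effect; on the % scale 0 is the no-effect control and ±100 the full control effect; nearly all actives have a fitted effect of over 65% in size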
#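 HTRF cAMP measurement after 30 min RT detection following 30 min, 37C compound treatment alongside […] (added as 300 uM solution) in G418-selected cells seeded at 2000/well and grown 16–24 h.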
# An asterisk follows results filed as active; u = inconclusive; x = not tested or not shown; & = joins results of further samples; [ ] = dose if it differs, or a comment.
1: CCN1C/C(=C\c2cccc([N+](=O)[O-])c2)C(=O)/C(=C/c2cccc([N+](=O)[O-])c2)C1
2: CCN(CC)c1ccc(C2C(C(=O)OCCOC)=C(C)NC3=C2C(=O)CC(C)(C)C3)cc1 (stereo not drawn)
3: CN(C)S(=O)(=O)c1cccc(C(=O)Nc2ccc(Cl)cn2)c1
4: COC(=O)Cc1csc(N)n1
5: Cc1ccc(C2CCN(C(=O)c3cnn(-c4ccc(C)cc4)c3C3CCN(C(=O)OC(C)(C)C)CC3)C2)cc1 (stereo not drawn)
6: CCC(=O)NC1CCN(C(=S)NC)CC1
7: O=C1CCCCN1CCCC(=O)N1CCCC(Nc2ccc(F)c(F)c2)C1 (stereo not drawn)
8: CCC(CC)C(=O)Nc1nnc(S(=O)(=O)N2CCCC2)s1
9: CN(C)C(=O)C[n+]1cccc(/C=N/O)c1
10: Cc1ccccc1CNS(=O)(=O)c1ccc2c(c1)C(C)(C)C(=O)N2C
Compound,1,2,3,4,5,6,7,8,9,10
ClpP mod,-1.5%,28.2µM*,0.2%,-0.2%&-1.4%,1.2%,x,-1.4%,-10.9%,x,-1.4%
gsp agonist,27.4%,-6.7%,-10.4%,-23.2%&-5.7%,x,-10.1%[15.4 µM],-18.0%,-36.9%[inhibitor],-29.9%,-11.2%
gsp antag,-7.0%,4.8%,5.6%,7.3%&13.4%,x,10.1%,-12.4%,-0.6%,8.0%,2.2%
TRPML1 blocker,1.3,-10.6,6.3,4.6&0.7,9.1,15.9,-7.6,-0.3,-3.6,4.1
Menin MLL FP FL,4.4,5.2,-1.7,0.2&4.4,x,2.9,x,-4.2,-15.2,-9.7
TRPML1 ag,0.3,-0.5,-0.4,-0.4&0.1,-0.2,0.9,0.0,-0.4,-0.1,-0.5

11: COc1cccc(C2C(C#N)=C(N)Oc3cc(C)oc(=O)c32)c1OC (stereo not drawn)
12: Cc1occc1-c1nnc(SCC(=O)Nc2ccccc2)n1Cc1ccccc1
13: Cc1cc(C)cc(N2CCn3c2nc2c3c(=O)n(CCCc3ccccc3)c(=O)n2C)c1
14: CNS(=O)(=O)c1cn(CC(=O)NCc2ccc(N(C)C)cc2)cc1S(=O)(=O)NC
15: CCn1ccnc1CNCc1ccc(OCC(O)CN(C)Cc2ccccc2)cc1 (stereo not drawn)
16: CCCCC(=O)NC(=S)Nc1ccc(NC(=O)C(C)C)c(OC)c1
17: Cc1ccc(NC2CCCN(C(=O)C3CCCC3)C2)cc1C (stereo not drawn)
18: CC(C)(C)NCC(O)COc1ccccc1C1CCCC1 (stereo not drawn)
19: O=C(Nc1ccc2c(c1)nc1n2CCN(Cc2ccccc2)C1)c1cccs1
20: COC(=O)C1=C(C)N(Cc2ccccc2)C(=NCC(C)C)N[C@H]1c1cccc(F)c1
Compound,11,12,13,14,15,16,17,18,19,20
ClpP mod,1.7%,-0.8%,u,0.8%,0.2%,-2.3%,-25.8%,-1.8%,-10.8%,-4.7%
gsp agonist,-10.8%,8.3%,x,-11.4%[15.4 µM],-4.2%,-0.1%[15.4 µM],-0.8%[15.4 µM],x,39.5%,x
gsp antag,27.4%,-3.5%,x,13.9%,7.4%,-0.7%,-12.8%,-2.1%,-14.2%,2.4%
TRPML1 blocker,-9.4,-2.4,-5.7,14.2,12.4,-2.7,-17.2,9.0,20.8,3.7
Menin MLL FP FL,-0.6,4.5,x,-0.7,-1.5,-2.2,-0.8,x,1.1,-1.2
TRPML1 ag,0.2,1.9,0.3,-1.1,0.9,-0.5,-0.7,1.4,-0.6,1.3

21: CCc1cc2ccccc2nc1SCC(=O)NC1CCCC1
22: CCOC(=O)c1ccc(NC(=O)Cn2c(=O)cc(C(F)(F)F)c3c(C)nn(C)c32)cc1
23: CC(=O)CN1C(=O)NC2(CCCc3ccccc32)C1=O (stereo not drawn)
24: Cc1cc(=O)oc2c(CN3CCCC3)c(O)c(Cl)cc12
25: CN(Cc1ccc(Cl)c(Cl)c1)C(=O)CN1C(=O)NC2(CCCC2)C1=O
26: CC1Cc2nc(SCC(=O)Nc3nccs3)n(C)c(=O)c2S1 (stereo not drawn)
27: OC1(c2ccccc2)CN(c2ccccc2)C2=[N+]1CCS2 (stereo not drawn)
28: CCC(CO)Oc1cc(NCc2ccccc2F)c2ncn(C(C)C)c2c1 (stereo not drawn)
29: CC(OC(=O)CNC(=O)c1ccc2ccccc2c1)C(=O)N(C)C1CCCCC1 (stereo not drawn)
30: Cc1ccc2nc(C3CCCCC3)c(CC(C)(C)C)n2c1
Compound,21,22,23,24,25,26,27,28,29,30
ClpP mod,x,-3.8%,-1.0%,-0.9%,-7.4%,-0.3%,-4.5%,-4.4%,x,u
gsp agonist,26.9%,x,-1.3%,-4.2%[15.4 µM],-6.4%,20.1%,18.7%,11.5%,1.0%[15.4 µM],x
gsp antag,-8.5%,x,-3.5%,2.8%,2.4%,-1.5%,5.9%,-5.3%,-11.2%,x
TRPML1 blocker,-18.3,-7.3,7.9,-15.6,-8.8,-24.9,24.2,2.2,-7.2,-1.6
Menin MLL FP FL,2.4,x,1.6,u,x,0.9,5.4,x,x,x
TRPML1 ag,0.0,0.6,0.6,-0.3,2.0,0.4,1.9,-1.0,2.4,0.9

31: COc1ccc(N2CCN(C(=O)CSc3ccccc3N)CC2)cc1
32: COc1ccc(N/C=C2/Sc3ccccc3NC2=O)cc1
33: CC(=O)OCC1OC(n2c(-c3ccc(Cl)cc3)ccc(C#N)c2=S)C(OC(C)=O)C(OC(C)=O)C1OC(C)=O (stereo not drawn)
34: CC12CCC(c3c(C(=O)O)nn(-c4ccc(F)cc4)c31)C2(C)C (stereo not drawn)
35: Cc1ccc(NCc2nnc(SCC(=O)N3CCCc4ccccc43)o2)c(C)c1
36: O=C(NNC(=O)c1cc(Cl)ccc1O)c1cccs1
37: Cc1ccc(S(=O)(=O)N2CCOCC2)cc1C(=O)c1nccn1C
38: COC(=O)c1nn(-c2ccc3c(c2)OCO3)cc1O
39: O=C(CCCCCNc1nc(=S)[nH]c2ccccc12)NCCC1=CCCCC1
40: O=C(Nc1cccc(-c2cccc(Cl)c2)c1)C1CCN(CC2CCOC2)CC1 (stereo not drawn)
Compound,31,32,33,34,35,36,37,38,39,40
ClpP mod,-0.4%,1.2%,-7.7%,-2.4%,-1.2%,x,x,31.6µM*,1.2%,-0.9%
gsp agonist,-0.7%,30.0%,u,-2.8%,-27.8%,14.5%,-13.1%[15.4 µM],u,2.1%[15.4 µM],u
gsp antag,-9.9%,-4.2%,7.2%,-14.7%,-19.1%,-3.1%,6.6%,4.8%,21.6%,8.8%
TRPML1 blocker,3.6,6.4,1.6,1.5,-2.0,-6.5,-0.7,51.0,2.4,12.4
Menin MLL FP FL,0.0,1.6,x,0.8,1.3,2.2,1.4,-0.3,-0.2,x
TRPML1 ag,0.0,2.2,0.5,0.6,3.3,-0.2,-0.7,0.1,0.6,-0.3

41: CC[C@]1(c2ccccc2)C(=O)N(C(=O)OC)N1C(=O)OC
42: O=P1(Nn2cnnc2)C=C(c2ccccc2)OC(c2ccccc2)=C1
43: COc1ccc(NC(=O)CCC(=O)c2cccs2)c(OC)c1
44: CC(=O)n1cc([C@H]2C=C(C(=O)O)O[C@@H](OCCCCO)C2)c2ccccc21
45: Cc1c(Br)c([N+](=O)[O-])nn1CC(=O)Nc1ccccn1
46: COc1ccc(NC(=O)c2ccc(S(=O)(=O)N(C)c3ccccc3)cc2)cc1S(=O)(=O)N1CCOCC1
47: Cc1cc(=O)oc2c3c(cc(OCC(=O)N4CCC(C(=O)O)CC4)c12)OC(C)(C)CC3
48: Cc1ccc(S(=O)(=O)C2(C(=O)NC3CCCCC3C)CC2)cc1 (stereo not drawn)
49: O=C(NCC1CCCO1)c1ccccc1-c1nc(-c2ccccc2)no1 (stereo not drawn)
50: COc1ccc(CN2CCN(c3ccccc3OC)CC2)c(OC)c1
Compound,41,42,43,44,45,46,47,48,49,50
ClpP mod,-2.2%,-0.5%,x,-8.5%,x,-8.2%,5.0%,x,u,-0.1%
gsp agonist,x,-69.6%,-21.6%[15.4 µM],-16.3%,-1.1%,-6.3%,x,12.7%[15.4 µM],-7.4%,26.5%
gsp antag,3.6%,4.3%,5.0%,3.6%,9.2%,x,-8.6%,0.2%,-0.2%,4.2%
TRPML1 blocker,16.3,-9.1,2.6,-23.0,-5.6,12.9,x,16.2,31.2,-0.1
Menin MLL FP FL,0.7,-5.0,x,5.3,-3.3,x,-1.2,3.8,-1.0,-2.9
TRPML1 ag,-0.7,-0.2,-0.2,0.5,-0.3,-0.3,x,0.6,1.5,-0.3

51: N#Cc1ccc(C(=O)OCC(=O)NC(=O)NC2CCCCC2)cc1
52: CCOC(=O)N1CCN(C(=O)c2cccc(S(=O)(=O)Nc3ccc(OC)cc3)c2)CC1
53: CC(=O)Nc1ccc(N2S(=O)(=O)c3ccccc3S2(=O)=O)cc1
54: CSc1nnc(NC(=O)c2cccc(S(=O)(=O)N3CCOCC3)c2)s1
55: COC(=O)c1c(-c2ccccc2)csc1N1C(=O)Nc2ccccc2N1O
56: CN1/C(=C/C(=O)C2CC2)C(C)(C)c2ccccc21
Compound,51,52,53,54,55,56
ClpP mod,-2.0%,0.2%,-1.1%,1.3%,3.1%,x
gsp agonist,-2.2%,41.3%,-40.8%[inhibitor],-33.8%,u,-27.7%[15.4 µM]
gsp antag,6.5%,-3.8%,5.4%[15.4 µM],-10.9%,-28.7%,x
TRPML1 blocker,21.9,0.3,3.4,7.1,0.2,-12.6
Menin MLL FP FL,x,x,0.5,x,1.2,9.6
TRPML1 ag,1.1,-0.4,0.5,-0.4,-0.7,0.1

# In another format: results already given.
# The line under a structure holds: ClpP mod | gsp agonist | gsp antag | TRPML1 blocker | Menin MLL FP FL | TRPML1 ag
(52) CCOC(=O)N1CCN(C(=O)c2cccc(S(=O)(=O)Nc3ccc(OC)cc3)c2)CC1
    0.2% | 41.3% | -3.8% | 0.3 | x | -0.4
(56) CN1/C(=C/C(=O)C2CC2)C(C)(C)c2ccccc21
    x | -27.7%[15.4 µM] | x | -12.6 | 9.6 | 0.1
(55) COC(=O)c1c(-c2ccccc2)csc1N1C(=O)Nc2ccccc2N1O
    3.1% | u | -28.7% | 0.2 | 1.2 | -0.7
(51) N#Cc1ccc(C(=O)OCC(=O)NC(=O)NC2CCCCC2)cc1
    -2.0% | -2.2% | 6.5% | 21.9 | x | 1.1

# High-throughput results deposited in PubChem by National Center for Advancing Translational Sciences (NCATS).
